Compound activity deposited in PubChem by National Center for Advancing Translational Sciences (NCATS).
RE007 growth inh: less growth of the S. pombe RE007 Vpr strain; S. pombe RE007 Vpr strain, BacTiter-Glo ATP luminescence, 24 h; control for the full effect not named in the record; Potency, µM (highest dose often 92.2 µM), for inactives: at the highest dose activity change, negative = less growth; 360,000 compounds, 0.21% hits; AID 651644; active = well fitted falling curve with a large enough effect; inconclusive = small, poorly fitted or top-dose-only effect; inactive = no such curve, though single readings can be large or run the other way;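 further: on the % scale 0 is the no-effect control and ±100 the full control effect; nearly all actives have a fitted effect of over 50% in size; the assay follows cell death caused by Vpr and the record does not say whether a fall means rescue or toxicity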
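Fission yeast strain RE007, carrying one chromosomally integrated HIV-1 vpr copy, was seeded at OD 0.01 in PMG+AL medium with 23 nL pinned compound. After 24 h at 30 °C and 99% humidity, viability was read by BacTiter-Glo luminescence.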
Lassa entry inh: Lassa virus entry inhibition; AID 540256; 300,000 compounds, 1.2% hits; Lassa virus pseudotype entry inhibition, cell reporter; control for the full effect not named in the record; Potency, µM (top dose mostly 37.9 µM), inactives show at the top dose activity change, negative = inhibition, hits mostly inhibitors; active means well fitted inhibition curve with a large enough effect; inconclusive means small, poorly fitted or top-dose-only effect, or effect the other way; inactive means flat fitted curve, though single readings scatter; tested in HEK293 cells; further: on the % scale 0 is the no-effect control and ±100 the full control effect; nearly all actives have a fitted effect of over 50% in size; luciferase read-out
Cruzain Triton: cruzain (T. cruzi) inhibition with detergent | P25779 | purified cruzain, Z-FR-AMC fluorescence, 0.01% Triton | Potency, µM, for inactives: max response, negative = inhibition, usual class: inhibitors | 200,000 compounds, 0.43% hits | AID 1478;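 further: plate controls were neutral wells for no effect and buffer without enzyme for full effect; nearly all actives have a fitted effect of over 40% in size; top concentration of the series not given in the record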
Target sequence (P25779 123-467 limits assumed): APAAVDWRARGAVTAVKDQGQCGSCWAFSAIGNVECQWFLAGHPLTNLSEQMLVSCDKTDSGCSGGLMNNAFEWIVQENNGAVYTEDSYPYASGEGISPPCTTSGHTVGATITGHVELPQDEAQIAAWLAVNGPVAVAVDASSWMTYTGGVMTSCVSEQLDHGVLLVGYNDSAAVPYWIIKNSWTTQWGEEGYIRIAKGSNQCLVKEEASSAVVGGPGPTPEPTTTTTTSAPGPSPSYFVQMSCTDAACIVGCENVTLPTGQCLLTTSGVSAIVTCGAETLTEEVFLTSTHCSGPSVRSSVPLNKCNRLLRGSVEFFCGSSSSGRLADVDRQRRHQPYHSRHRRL
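Compounds were screened in titration against cruzain (1.5 nM) with 0.01% Triton X-100 to counter colloidal aggregation. Activity was the AMC fluorescence increase over 60 s after adding 2 uM Z-FR-AMC at pH 5.5.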
NS1 inh: inhibitors of influenza NS1 protein function; S. cerevisiae slowed by influenza A NS1, growth recovery by OD600; Potency, µM (top dose mostly 46.1 µM), for inactives: at the top dose activity, positive = more growth; 270,000 compounds, 0.4% hits; AID 2326; active means well fitted rising curve with a large enough effect; inconclusive means small, poorly fitted or top-dose-only effect; inactive means no such curve, though single readings can be large or run the other way; further: nearly all actives have a fitted effect of over 50% in size
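Read-out: OD600 growth recovery of NS1-expressing budding yeast. Cells grown overnight at 30C in -URA glucose medium, washed, resuspended and diluted 1:100 in 2% galactose assay medium, pH 6.0. Same strain lacking NS1 served as positive control.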
Cruzain noTriton: blocks cruzain activity in detergent-free assay | 200,000 compounds, 2.3% hits | purified cruzain, Z-FR-AMC fluorescence, no detergent | Potency, µM, without a hit: max response, negative = inhibition, usual class: inhibitors;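 further: plate controls were enzyme without inhibitor for no effect and buffer without enzyme for full effect; nearly all actives have a fitted effect of over 40% in size; top concentration of the series not given in the record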
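Purified cruzain at 1.5 nM, pre-incubated 15 min with compound at room temperature in 100 mM sodium acetate pH 5.5, 5 mM DTT, 0.00005% Triton X-100. Reaction started with 2 uM Z-FR-AMC; AMC fluorescence increase over 60 s gives rate.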
SARS PLpro yeast: SARS-CoV PLP inhibition in yeast | AID 485353 | 330,000 compounds, 0.19% hits | S. cerevisiae expressing SARS-CoV PLpro, growth rescue; control for the full effect not named in the record | Potency, µM (titrated, usually from 32.9 µM), for the others: top-dose activity, positive = growth rescue; active means well fitted rising curve with a large enough effect; inconclusive means small, poorly fitted or top-dose-only effect; inactive means no such curve, though single readings can be large or run the other way; further: 0% is about no effect; nearly all actives have a fitted effect of over 55% in size; growth read by luminescence after 48 h
MARV entry inh: blocks Marburg virus binding to or entry into cells; Marburg virus pseudotyped entry inhibition, cell reporter; control for the full effect not named in the record; about a third of the inactives were read at about 46 µM; 300,000 compounds, 1.8% hits; Potency, µM (titrated, usually from 37.8 µM), for inactives: at the highest dose activity change, negative = inhibition, usual class: inhibitors; active = well fitted inhibition curve with a large enough effect; inconclusive = small, poorly fitted or top-dose-only effect, or effect the other way; inactive = flat fitted curve, though single readings scatter; tested in HEK293 cells; about a fifth of its hits are not listed in these tables; further: on the % scale 0 is the no-effect control and ±100 the full control effect; luciferase read-out
2A StopGo: FMDV 2A StopGo reporter, luciferase signal | human cells with a luciferase reporter of 2A StopGo recoding; control for the full effect not named in the record | Potency, µM (top dose mostly 57.9 µM), for the others: at the top dose signal change, negative = less light | 410,000 compounds, 1.2% hits | AID 1159524; active = well fitted falling curve with a large enough effect; inconclusive = small, poorly fitted or top-dose-only effect; inactive = no such curve, though single readings can be large or run the other way; tested in HEK293T cells; further: on the % scale 0 is the no-effect control and ±100 the full control effect; nearly all actives have a fitted effect of over 45% in size; luciferase light after 4 h
Starred values were filed as active, the others as inactive; ? = inconclusive; . = not tested or not shown; [ ] = dose if it differs, or a comment. Unless noted, the call rests on the fitted dose curve; in most records, active means well fitted curve in the direction sought with a large enough effect; inconclusive means small, poorly fitted or top-dose-only effect, or another doubt; inactive means no such curve, though single readings can be large; an effect the other way counts as inactive or inconclusive. Potency means the concentration at half of the fitted maximal effect.

SMILES	RE007 growth inh	Lassa entry inh	Cruzain Triton	NS1 inh	Cruzain noTriton	SARS PLpro yeast	MARV entry inh	2A StopGo
COc1cc(/C=C2/C(=O)ON=C2C)ccc1OCc1ccccc1F	-28%	-13%	-7.3%	17%	?	-18%	-21%	.
COc1ccc2[nH]cc(CCCN3C(=O)c4ccccc4C3=O)c2c1	9%	11µM*	-7.5%	-1%	8%	-12%	?	-19%
COCc1cc(Sc2c(Cl)cccc2Cl)nc(-c2ccccc2)n1	-12%	-12%	-0.6%	-1%	-15%	5%	-26%[46.1 µM]	-19%
O=C(N/N=C/c1cc2c(cc1Cl)OCO2)c1ccc2c(c1)OCCO2	14%	-24%[46.1 µM]	.	3%	.	0%	0%[46.1 µM]	0%
Cc1c(C(=O)Nc2ccc(F)c(Cl)c2)sc2nc3n(c(=O)c12)CCC3	.	?	-4.4%	.	14%	.	.	5%
CCOc1ccc(NC(=O)CCNC(=O)C2CCN(S(=O)(=O)c3ccccc3)CC2)cc1	8%	.	.	-3%	.	-6%	.	-22%
COc1ccc(C2=C(C)C(=NCc3ccc(OC(C)C)cc3)NS2(=O)=O)cc1	.	2%[46.1 µM]	-8.2%	.	?	.	8%[46.1 µM]	8%
COc1ccc(CCNC(=O)C(=O)NN=C2CCCCCCC2)cc1OC	2%	.	.	5%	.	0%	.	-24%
Cc1ccc(OCC(=O)N2CCN(Cc3ccc([N+](=O)[O-])cc3)CC2)cc1	-3%	.	.	-56%	.	-2%	.	?
COc1cc(NC(=O)c2cnc3c(-c4ccc(F)cc4)c(C)nn3c2C)cc(OC)c1	.	1%[46.1 µM]	-5.1%	.	21%	.	.	-25%
CC(Oc1ccc(F)cc1)c1ccnc2nc(/N=C/N(C)C)nn12 (stereo unspecified)	4%	14%[46.1 µM]	.	.	.	-1%	2%[46.1 µM]	-7%
CNC(=S)N(CCc1ccccc1)Cc1cc2cc(OC)c(OC)cc2[nH]c1=O	.	-17%	-9.8%	24%	?	8%	?	?
COc1ccc(OC)c(-c2csc(N3CCC(c4ccccc4)CC3)n2)c1	-6%	5%	.	.	.	-1%	?	-17%
CC(C)Cn1c(=O)c2ccccc2n2c(CCC(=O)O)nnc12	15%	.	.	5%	.	4%	.	1%
COc1cccc(-c2csc(N3CCN(Cc4ccccc4)CC3)n2)c1	-9%	9%	-10%	-15%	-24%	?	14%	23%

Two compounds drawn at random from the list so far, as already listed:
SMILES	RE007 growth inh	Lassa entry inh	Cruzain Triton	NS1 inh	Cruzain noTriton	SARS PLpro yeast	MARV entry inh	2A StopGo
COc1cc(NC(=O)c2cnc3c(-c4ccc(F)cc4)c(C)nn3c2C)cc(OC)c1	.	1%[46.1 µM]	-5.1%	.	21%	.	.	-25%
Cc1c(C(=O)Nc2ccc(F)c(Cl)c2)sc2nc3n(c(=O)c12)CCC3	.	?	-4.4%	.	14%	.	.	5%

An excerpt from further up, as a working copy:
SMILES	RE007 growth inh	Lassa entry inh	Cruzain Triton	NS1 inh	Cruzain noTriton	SARS PLpro yeast	MARV entry inh	2A StopGo
CC(Oc1ccc(F)cc1)c1ccnc2nc(/N=C/N(C)C)nn12 (stereo unspecified)	4%	14%[46.1 µM]	.	.	.	-1%	2%[46.1 µM]	-7%
CNC(=S)N(CCc1ccccc1)Cc1cc2cc(OC)c(OC)cc2[nH]c1=O	.	-17%	-9.8%	24%	?	8%	?	?

Copied from the list.
MARV entry inh with COc1cccc(-c2csc(N3CCN(Cc4ccccc4)CC3)n2)c1 is entered as 14%
2A StopGo with CC(Oc1ccc(F)cc1)c1ccnc2nc(/N=C/N(C)C)nn12 (stereo unspecified) is entered as -7%
Cruzain Triton with CNC(=S)N(CCc1ccccc1)Cc1cc2cc(OC)c(OC)cc2[nH]c1=O is entered as -9.8%

(more compounds)
SMILES	RE007 growth inh	Lassa entry inh	Cruzain Triton	NS1 inh	Cruzain noTriton	SARS PLpro yeast	MARV entry inh	2A StopGo
COc1cc(NC(=O)c2cccs2)ccc1NC(=O)Cc1ccccc1	1%	14%	.	4%	.	-1%	-3%	1%
Cc1cc(NS(=O)(=O)c2ccc(NC(=O)c3cc(-c4cccnc4)nc4ccc(Cl)cc34)cc2)no1	7%	-10%	-0.3%	20%	?	4%	4%	20%
Cc1cc(OC(=O)c2c(Cl)cccc2Cl)nc(C)n1	-1%	?	-0.6%	-4%	2%	-2%	?	-4%
COc1ccc2oc(C(=O)OCC(=O)N(C)CC(=O)Nc3ccc(C)cc3)c(C)c2c1	1%	-5%	.	.	.	0%	2%[46.1 µM]	-11%
COc1cccc(OC)c1C(=O)Nc1ccc2c(c1)Cc1ccccc1-2	1%	-12%	.	-15%	.	-2%	?	41%[activator]
NC(=O)C(CC(=O)O)NC(=O)[C@@H]1CCCNc2c(I)cc([N+](=O)[O-])cc2C(=O)N[C@@H](CO)C(=O)N[C@@H](Cc2ccc(O)cc2)C(=O)N1 (stereo partly specified)	-6%	3%	-5.0%	?	?	-9%	-3%	-11%
O=C(NC1CC(=O)N(c2ccc(Cl)cc2)C1)C1CC1 (stereo unspecified)	7%	-2%	.	.	.	-3%	3%[46.1 µM]	1%
CCCc1cc(=O)[nH]c(SCC(=O)N2CCC(C)CC2)n1	15%	.	.	8%	.	2%	.	-12%
CN(C)c1nc(N(C)C)nc(N(C#N)Cc2ccc(Cl)cc2)n1	-8%	.	.	1%	.	0%	.	-17%
COc1ccc(NC(=O)C2CCN(S(=O)(=O)c3ccc4c(c3)NC(=O)CO4)CC2)cc1	0%	-19%[46.1 µM]	.	2%	.	-6%	-1%[46.1 µM]	-12%
COC(=O)CCNC(=O)Cn1cnc2sc3c(c2c1=O)CCCC3	4%	24%[46.1 µM]	.	.	.	3%	-4%[46.1 µM]	2%
Cc1cc(C)c2c(CN3CC(C)OC(C)C3)cc(=O)oc2c1C (stereo unspecified)	11%	19%[46.1 µM]	.	-11%	.	-2%	?	-26%
C=C(C)COc1ccc(-c2ncnc(C(F)(F)F)c2-c2ccc(OC)cc2)c(O)c1	-27%	-14%[46.1 µM]	.	-6%	.	-8%	?	?
CCn1c(/C=C2\C(=O)Nc3ccccc32)nc2ccccc2c1=O	-8%	?	-3.6%	-1%	14%	3%	?	22µM*
O=C(NCCc1ccccc1)C1CCN(C2CCN(Cc3ccco3)CC2)CC1	-2%	-9%	.	5%	.	2%	?	-27%
CCCCn1c(N)c(N(CC(C)C)C(=O)CCCSc2nncs2)c(=O)[nH]c1=O	-2%	17%[46.1 µM]	.	.	.	1%	?	-6%
O=C(Nc1ccccc1Cl)/C(Cl)=C(\Cl)S(=O)c1ccccc1 (stereo unspecified)	?	8.9µM*	.	-77%	.	-7%	3.2µM*	7.1µM*

Profiles from above.
Entry for NC(=O)C(CC(=O)O)NC(=O)[C@@H]1CCCNc2c(I)cc([N+](=O)[O-])cc2C(=O)N[C@@H](CO)C(=O)N[C@@H](Cc2ccc(O)cc2)C(=O)N1 (stereo partly specified) = RE007 growth inh = -6%; Lassa entry inh = 3%; Cruzain Triton = -5.0%; NS1 inh = ?; Cruzain noTriton = ?; SARS PLpro yeast = -9%; MARV entry inh = -3%; 2A StopGo = -11%
Entry for CCCCn1c(N)c(N(CC(C)C)C(=O)CCCSc2nncs2)c(=O)[nH]c1=O = RE007 growth inh = -2%; Lassa entry inh = 17%[46.1 µM]; Cruzain Triton = .; NS1 inh = .; Cruzain noTriton = .; SARS PLpro yeast = 1%; MARV entry inh = ?; 2A StopGo = -6%
Entry for Cc1cc(OC(=O)c2c(Cl)cccc2Cl)nc(C)n1 = RE007 growth inh = -1%; Lassa entry inh = ?; Cruzain Triton = -0.6%; NS1 inh = -4%; Cruzain noTriton = 2%; SARS PLpro yeast = -2%; MARV entry inh = ?; 2A StopGo = -4%
